High-throughput results from PubChem.
Sa growth 42C: blocks Staphylococcus aureus growth. S. aureus RN4220 growth, OD600, 20 h, 42 °C; active compounds read low. actives 0.53% (n = 170,000). relative growth, % (no concentration beside the values);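 active = growth at 42 °C up to 50% and 20 or more points under that at 30 °C, or under 10% at both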;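 also: 300 nL library stock went into each well; scaled to the means of positive and negative controls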
GIV Gai3 FP: blocks GIV peptide binding to rat Galpha-i3; P08753; percent of control (FP), % (test concentration not listed); actives 0.42% (n = 210,000); Galpha-i3/FITC-GIV peptide fluorescence polarization, 90 min; active compounds read low; scaled: aluminum fluoride 0%, vehicle 100%; AID 1224905;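 active = replicate mean at 85% of control or lower, very high polarization wells dropped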;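 also: lower values mean more displacement of the GIV peptide from Galpha-i3; wells of about 15 µL received 100 nL stock; the first replicate is given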
Target sequence (P08753 whole entry, looked up): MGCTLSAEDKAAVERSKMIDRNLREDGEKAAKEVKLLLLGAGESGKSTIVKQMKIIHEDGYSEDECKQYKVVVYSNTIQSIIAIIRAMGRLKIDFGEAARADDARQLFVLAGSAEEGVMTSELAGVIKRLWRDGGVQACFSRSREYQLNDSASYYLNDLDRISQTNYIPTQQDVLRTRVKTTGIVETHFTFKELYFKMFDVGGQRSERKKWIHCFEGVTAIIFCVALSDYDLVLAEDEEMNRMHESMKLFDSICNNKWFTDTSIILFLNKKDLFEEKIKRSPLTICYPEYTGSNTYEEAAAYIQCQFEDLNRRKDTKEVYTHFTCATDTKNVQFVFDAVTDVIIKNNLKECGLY
HCMV NEC inh: cytomegalovirus nuclear egress complex inhibition. HTRF UL50-UL53 interaction, normalized percent inhibition. inhibition, % (concentration not given with the values). actives 0.15% (n = 190,000);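 active = both replicates at 50% or more, plus weaker picks with an unusually low signal ratio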;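 also: stock transfer was 100 nL into about 20 µL; 0% = negative control wells and 100% = wells with untagged competitor protein; inactives centre near -12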
Sa growth 42C second temp: recorded beside Sa growth 42C, whose call it bears; relative growth, %; measured here: growth at 30 °C;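 optical density after 20 h as mean of two plates; 100% = untreated growth and lower means inhibition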
Numbers without * were called inactive; · = not tested or not shown; & = joins results of further samples; ! = not confirmed by another sample.

| No. | molecule | Sa growth 42C | Sa growth 42C second temp | GIV Gai3 FP | HCMV NEC inh |
| --- | --- | --- | --- | --- | --- |
| 1 | Cc1nc2ncc3c(n2n1)CCc1ccccc1-3 | 80 | 92 | 112 | -2 |
| 2 | CCCc1cc2c(=O)c(-c3ccc4c(c3)OCCO4)c(CC)oc2cc1O | 77 | 71 | 105 | -22 |
| 3 | N#Cc1ccc(CSc2nc3ccccc3c(=O)n2Nc2ccccc2)cc1 | 112 | 83 | · | 2 |
| 4 | O=C(CC1OC(=O)c2ccccc21)NCc1ccc(Cl)cc1 (configuration not stated) | 93 | 87 | · | -17 |
| 5 | CCOC(=O)N1CCC(NC(=O)c2ccc3c(c2)N(Cc2cccc(C)c2)C(=O)c2ccccc2S3(=O)=O)CC1 | 105 | 94 | 102 | 4 |
| 6 | COc1ccccc1-c1noc(CSc2nnc(-c3ccccc3)n2-c2ccc(C)c(C)c2)n1 | 87 | 86 | 98 | -35 |
| 7 | Oc1ccccc1C=Nc1ccc(Oc2ccccc2)cc1 | 92 | 111 | 103 | -2 |
| 8 | Cc1cc(C)c(S(=O)(=O)NCCc2sc(-c3cccnc3)nc2C)c(C)c1 | 85 | 96 | 111 | · |
| 9 | Cn1cc(C(=O)Nc2cc(F)ccc2F)c2[nH]c(=O)n(-c3ccc(Cl)cc3)c(=O)c21 | · | · | 103 | -14 |
| 10 | COc1ccc(OC)c(C(=O)c2ccc(C(=O)O)cc2)c1 | 106 | 123 | 98 | -4 |
| 11 | CCS(=O)c1ccccc1C(=O)OCC(=O)N1CCC(c2ccccc2)=N1 (configuration not stated) | 97 | 80 | · | -35 |
| 12 | Cc1ccc(S(=O)(=O)N2CN3CN(C2)CN(S(=O)(=O)c2ccc(C)cc2)C3)cc1 | 82 | 80 | 99 | · |
| 13 | CN(C(=O)c1c(Cl)nc2sccn12)C1CCCCC1 | 72 | 95 | · | 11 |
| 14 | O=C(CN1N=C(c2ccccc2)CCC1=O)NCc1ccc(F)cc1Cl | 87 | 93 | 101 | · |
| 15 | c1ccc2c(CNc3ccc(CNc4ncn[nH]4)cc3)cccc2c1 | 116 | 80 | · | -6 |
| 16 | C=Cc1nc2c(cnn2-c2ccccc2)c(=O)[nH]1 | 72 | 88 | · | -1 |
| 17 | NS(=O)(=O)c1ccc(NC(=O)CSCC(=O)O)cc1 | 87 | 85 | 105 | -24 |
| 18 | O=C(CN1N=NC2C(=O)N(c3ccc(F)c(Cl)c3)C(=O)C21)Nc1ccc(F)cc1F (configuration not stated) | · | · | 104 | 0 |
| 19 | O=C1c2[nH]nc(-c3ccccc3O)c2C(c2ccc(Br)cc2)N1CC1CCCO1 (configuration not stated) | · | · | 102 | -13 |
| 20 | Cc1nnc(N2CCCC(C(=O)Nc3ccccc3C(F)(F)F)C2)c2nn(-c3ccccc3)c(C)c12 (configuration not stated) | 110 | 101 | 142 | · |
| 21 | Cc1oc2c(c1C(=O)NCCCn1ccnc1)C(=O)c1ccccc1C2=O | -0.8* | -0.7* | 91 | · |
| 22 | CCc1ccc(-c2cc(C(=O)Nc3ccc(S(=O)(=O)NC(C)=O)cc3)c3ccccc3n2)cc1 | 46 | 45 | 106 | -21 |
| 23 | O=C(CCNS(=O)(=O)c1cccc2nsnc12)NC1CCCCC1 | 89 | 86 | 107 | -97 |
| 24 | Cc1ccc(-c2cn(-c3ccc(Cl)cc3)c(S(=O)(=O)CC(=O)Nc3ccccc3)n2)cc1 | 96 | 90 | 104 | -16 |
| 25 | O=C(NCCn1c(C(F)(F)F)nc2cccnc21)Nc1ccccc1Br | · | · | 112 | -4 |
| 26 | Cc1cccc2cc(CN(Cc3ccco3)C(=O)c3ccccc3)c(=O)[nH]c12 | 75 | 112 | 99 | 22 |
| 27 | Nc1nc2ccccc2n1CCN1CCOCC1 | 85 | 88 | 104 | -10 |
| 28 | COc1ccc(N2CCN(CCCNC(=O)c3ccc4nc(N5CCCCC5)sc4c3)CC2)cc1 | 97 | 90 | 100 | -15 |
| 29 | Cc1ccc(CN2C(=O)C=CC2=O)cc1 | 47 | 32 | 104 | 1 |
| 30 | CC(C)NC(=O)NCc1cccn1Cc1ccccc1 | 90 | 82 | 102 | -26 |
| 31 | CCOC(=O)N1CCN(C(=O)c2sc3nc(C)nc(N4CCOCC4)c3c2C)CC1 | · | · | 113 | -4 |
| 32 | COc1ccccc1OCCC(=O)Nc1nc(C)cs1 | 100 | 93 | · | -15 |
| 33 | COC(=O)CCc1sc(Nc2ccc(OC)cc2)nc1-c1ccc(OC)cc1 | 101 | 84 | 108&98 | -22&-12 |
| 34 | Cc1ccc(-c2cc(C(F)F)nc(N3CCCCC3)n2)cc1 | 81 | 78 | 100 | -19 |
| 35 | CCCCOC(=O)C1COc2ccccc2O1 (configuration not stated) | 101 | 94 | · | 6 |
| 36 | Cn1c(SCCOc2ccccc2)nc2ccccc21 | 95 | 99 | · | 9 |
| 37 | CCc1nn(CCCC(=O)NCc2ccc(OC)cc2)c(=O)c2cc3occc3n12 | 87 | 80 | 100 | -19 |
| 38 | CC(C)CC(NS(=O)(=O)c1ccccc1)C(=O)O (configuration not stated) | 109 | 92 | 105 | -14 |
| 39 | NC[C@H]1O[C@H](O[C@H]2[C@H](O)[C@@H](O[C@H]3O[C@H](CO)[C@@H](O)[C@H](N)[C@H]3O)[C@H](N)C[C@@H]2N)[C@H](N)C[C@@H]1O | -0.6*! | -0.2*! | 98 | -30&-24&-3 |
| 40 | COC(=O)c1cc2sc(C)cc2n1Cc1nc(-c2ccc(C)cc2)oc1C | 80 | 92 | 108 | -6 |
| 41 | Cc1nn(C)c2c1c(-c1ccccc1)cc(=O)n2Cc1ccc(Br)cc1F | 102 | 93 | 101 | · |
| 42 | C/C(=N/NS(=O)(=O)c1ccc(C)cc1)c1c(O)c2ccccc2oc1=O | 89 | 81 | 102 | -22 |
| 43 | Cn1c(NNC(=O)C(c2ccccc2)c2ccccc2)cc(=O)n(C)c1=O | 101 | 81 | 107 | 5 |
| 44 | O=C(NCCCn1ccnc1)c1ccc(S(=O)(=O)Nc2ccccc2)cc1 | 93 | 94 | · | -1 |
| 45 | Cc1onc(-c2ccccc2Cl)c1C1=N/C(=C\c2ccc([N+](=O)[O-])cc2)C(=O)O1 | · | · | 108 | -22 |
| 46 | Cc1ccc(C(=O)NCC2CCCO2)cc1C (configuration not stated) | 79 | 92 | · | 7 |
| 47 | CCCNC(=O)CSc1nnc(C)o1 | 90 | 94 | · | -28 |
| 48 | O=C(NCc1ccc(Cl)cc1)c1ccc2c(c1)N(Cc1ccccc1)CCS2 | · | · | 107 | -18 |
| 49 | O=C(CCCCn1c(=O)c2ccccc2n(CC(=O)Nc2ccc(F)cc2F)c1=O)NCc1ccccc1Cl | 108 | 93 | 98 | -5 |
| 50 | COc1cc(OC)cc(C(=O)OCC(=O)N2CCCC2)c1 | 112 | 88 | · | -5 |
| 51 | CCOC(=O)c1nc(N2CCOCC2)c2ccccc2n1 | 97 | 87 | 108 | -49 |
| 52 | CN(CCCNC(=O)c1nc(-c2nn(-c3ccc(F)cc3)c(=O)n(C)c2=O)no1)c1ccccc1 | · | · | 97 | -78 |
| 53 | Cc1ccc2onc(CNC(=O)NCc3ccccc3)c2c1 | 131 | 83 | 102 | · |
| 54 | CCN(CC)S(=O)(=O)c1ccc2c(c1)N(CC(=O)Nc1ccc(F)cc1F)C(=O)C1CCCN21 (configuration not stated) | 83 | 88 | 115 | · |
| 55 | CCOC(=O)c1ccccc1NC(=O)CSc1nc(=O)[nH]c2c1CCC2 | 102 | 90 | 97&103 | · |
| 56 | Cn1ccnc1Sc1ccnc2cc(Cl)ccc12 | 90 | 94 | · | -4 |
| 57 | COc1ccc(CNC(=O)c2ccc3c(c2)c(C)c(C)n3C)cc1 | · | · | 107 | -10 |
| 58 | COc1ccc(Cn2ccc3nc(C)c(C(=O)NCc4ccc(OC)cc4OC)cc3c2=O)cc1 | 66 | 90 | 101 | · |
| 59 | CCOc1ccccc1NC(=O)CSc1nccn1Cc1ccc(F)cc1 | 116 | 93 | 106 | · |
| 60 | Cc1nc(-c2ccccc2)ncc1C(=O)Nc1cccc(F)c1 | · | · | 105 | -11 |

Additional entries follow.
| No. | molecule | Sa growth 42C | Sa growth 42C second temp | GIV Gai3 FP | HCMV NEC inh |
| --- | --- | --- | --- | --- | --- |
| 61 | COc1cc(OC)c(NS(=O)(=O)c2coc(C(N)=O)c2)cc1Cl | 105 | 96 | 97 | 3 |
| 62 | COC(=O)c1cc(NC(=O)CCS(=O)(=O)c2ccc(Br)cc2)cc(C(=O)OC)c1 | 100 | 78 | · | 0 |
| 63 | COc1ccc(-c2csc3ncnc(Nc4cccc(OC)c4)c23)cc1 | 89 | 85 | 97 | · |
| 64 | COc1cc(NC(=O)c2cccc(F)c2)ccc1NC(=O)c1cc2ccccc2o1 | 91 | 93 | 105 | -24 |
| 65 | CSc1cccc(N2C(=S)NC3c4ccccc4OC24CCCC34)c1 (configuration not stated) | 110 | 96 | 97 | · |
| 66 | N#Cc1ccsc1NS(=O)(=O)c1ccc(OC(F)(F)F)cc1 | 77 | 72 | 97 | -12 |
| 67 | CCOC(=O)c1ccc(NC(=O)NCc2c(C)nn(CC)c2C)cc1 | · | · | 106 | -33 |
| 68 | CC(C)C(=O)Nc1ncc(C(F)(F)F)cc1Cl | 84 | 95 | · | 15 |
| 69 | CCNC(=S)N1c2ccccc2NC2=C(C(=O)CC(C)(C)C2)C1c1ccc(N(C)C)cc1 (configuration not stated) | 84 | 75 | 99 | · |
| 70 | COc1ccc(-c2sccc2C(C)C(=O)O)cc1 (configuration not stated) | 144 | 91 | 104 | 9 |
| 71 | CCOC(=O)CN(C)Cc1ccc(OC)cc1OC | 102 | 105 | 105 | -10 |
| 72 | CC1=C(C(=O)OCCc2ccccc2)C(c2ccc(Br)s2)NC(=O)N1C (configuration not stated) | · | · | 101 | -19 |
| 73 | COC(=O)c1cc2ccsc2n1Cc1cccc(F)c1 | 95 | 86 | 100 | -11 |
| 74 | O=C(CSc1nnc(COc2ccccc2)o1)c1ccccc1 | 102 | 97 | 102 | 6 |
| 75 | CCCC(=O)Nc1c(C(=O)c2ccccc2)oc2ccccc12 | 89 | 64 | 105 | -50 |
| 76 | Cc1cc(C)c(OCC(O)CNC2CC(C)(C)NC(C)(C)C2)c(C)c1 (configuration not stated) | 110 | 72 | · | -15 |
| 77 | N/C(=N\c1ncn[nH]1)N/N=C/c1c(Cl)cccc1Cl | 105 | 98 | 102 | -3 |
| 78 | COc1cc(-c2nc3ccccc3c(=O)n2NC(=O)c2c(F)cccc2F)cc(OC)c1OC | · | · | 110 | -16 |
| 79 | N#CC(Nc1ccc(F)cc1)c1ccco1 (configuration not stated) | 90 | 86 | · | -17 |
| 80 | CON(C)c1nc(-c2cccnc2)nc2ccccc12 | 103 | 95 | · | -16 |
| 81 | S=C1NN=C(c2ccccc2)C(c2ccccc2)N1 (configuration not stated) | 106 | 86 | 102 | · |
| 82 | COCc1nnc(C(=O)Nc2ccc(C(=O)NCCCN(C)c3ccccc3)cc2)s1 | · | · | 101 | -14 |
| 83 | C=CCN1CCN(C(=O)c2ccccc2C)CC1 | 81 | 98 | 95 | -19 |
| 84 | CN1/C(=C/C=N/O)C(C)(C)c2ccccc21 | 91 | 103 | · | 26 |
| 85 | CCN1C/C(=C\c2cccs2)C(=O)/C(=C/c2cccs2)C1 | 74 | 62 | 100 | -27 |
| 86 | COc1ccc(N2CCN(C(=O)c3ccc(NS(=O)(=O)c4cccs4)cc3)CC2)cc1 | 86 | 84 | 102 | · |
| 87 | CCc1ccc(-n2nc(CO)c(C(=O)NCC(c3ccccc3)c3ccccc3)n2)cc1 | 91 | 88 | 99 | -11 |
| 88 | Cc1cc(C)n(CCC(N)=O)n1 | 102 | 99 | · | 11 |
| 89 | COc1cccc(NC(=O)c2ccc(S(=O)(=O)c3ccccc3)nc2)c1 | · | · | 103 | 31 |
| 90 | CCC(=O)NCc1csc(-c2cccs2)n1 | 104 | 102 | 103 | -37 |
| 91 | COc1cc(-c2noc(CN3CCN(c4cccc(Cl)c4)CC3)n2)cc(OC)c1OC | 107 | 91 | 112 | 2 |
| 92 | N=C(N)SCc1ccccc1 | · | · | 103 | 0 |
| 93 | COC(=O)c1ccc(/N=C/N(C)C)s1 | 70 | 93 | · | -49 |
| 94 | Cn1c(=O)oc2cc(S(=O)(=O)NCCN3CCC(Cc4ccccc4)CC3)ccc21 | 104 | 99 | 102 | · |
| 95 | Cc1cc(=O)oc2c3c(ccc12)OCN(Cc1ccccc1Cl)C3 | 104 | 85 | 102 | · |
| 96 | CCS(=O)(=O)c1ncc(Cl)c(C(=O)N(Cc2ccccc2)c2ccc(OC)cc2)n1 | 5.0* | 15* | 104 | -13 |
| 97 | Cc1ccc2nc(N(Cc3cccnc3)C(=O)CCS(=O)(=O)c3ccccc3)sc2c1 | 118 | 94 | 99 | · |
| 98 | Cc1cccc(NC(=O)c2nnn(CC(=O)Nc3ccc(C(C)C)cc3)c2N)c1C | 105 | 84 | 107 | -3 |
| 99 | O=C(NCC(O)c1ccccc1)Nc1cccc(C(F)(F)F)c1 (configuration not stated) | 85 | 82 | 102 | -27 |
| 100 | CC(C(=O)NCc1ccccc1)C1Sc2ccccc2N(Cc2ccccc2F)C1=O (configuration not stated) | · | · | 98 | -5 |
